Bioassay records from PubChem.
Rce1 inh: yeast Rce1p protease inhibitors, primary screen, biochemical, fluorescence, cell-free homogeneous; yeast membranes, quenched prenylated peptide cleavage fluorescence; actives 0.27% (n = 290,000); calls only; AID 2563, 2010; CAAX prenyl protease 2 (Saccharomyces cerevisiae (strain ATCC 204508 / S288c)), Q03530;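 active = fall in fluorescence gain of 50% or more versus controls, with final raw signal at or below 3038400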;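 note: plate controls were neutral control wells for no effect and wells lacking membranes for full effect; tested at 10 µM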
Target sequence (Q03530 whole entry, looked up): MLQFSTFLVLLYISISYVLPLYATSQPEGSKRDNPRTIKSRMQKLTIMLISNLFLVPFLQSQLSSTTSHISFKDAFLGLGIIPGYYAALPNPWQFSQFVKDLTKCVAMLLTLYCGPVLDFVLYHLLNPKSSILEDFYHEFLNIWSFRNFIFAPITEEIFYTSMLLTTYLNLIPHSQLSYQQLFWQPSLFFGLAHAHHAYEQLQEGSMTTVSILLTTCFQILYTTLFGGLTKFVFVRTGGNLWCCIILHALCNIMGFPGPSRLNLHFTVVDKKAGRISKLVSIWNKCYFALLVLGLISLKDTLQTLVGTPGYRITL
HIV Env fusion: inhibitors of HIV-1 Env-driven cell-cell fusion, primary screen, HeLa-JRFL effector, CEM21 target cells, luciferase | inhibition, % at 12.3 µM | actives 1.1% (n = 360,000) | AID 651610, 2012;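 active = mean replicate inhibition score of at least 50 and every replicate individually at or above 50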;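 note: 0% = plate neutral controls and 100% = maraviroc near 300 nM; one replicate is shown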
CSC inhib: cancer stem cell viability inhibitors, primary screen, luminescence; cancer stem cell-like cells viability; inhibition, % at 7.5 µM; actives 1.1% (n = 300,000);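 active = mean at 75% or more and at least half the replicates too; tested in HMLE shEcad cells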;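 note: 0% = median of negative and 100% = median of positive control wells; the first replicate is given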
eIF4H inh: human eIF4H binding inhibitors, primary screen, translation initiation inhibitor project, biochemical, uHTS, fluorescence polarization; Eukaryotic translation initiation factor 4H (Homo sapiens), Q15056; eIF4H fluorescence polarization binding assay; inhibition, % at 35 µM; actives 0.94% (n = 290,000);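 active = 50% or more with normal probe brightness, or confirmed in later tests; about a fifth of its hits are not listed in these tables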;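 note: calls also rest on retests at 20 µM and on dose response follow-up; 0% = protein and probe with vehicle and 100% = probe without protein; strong numbers were not always called active; many hits fall short of the cut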
UUG fidelity: modulators of yeast start codon fidelity, primary screen, whole organism, S. cerevisiae, single point, plate reader; AID 602363, 2012; actives 0.13% (n = 350,000); activity score, % at 18.7 µM; S. cerevisiae UUG-firefly luciferase reporter, luminescence/redox ratio;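 active = replicate mean at a twofold rise or more, about +100% in these data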;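 note: firefly luciferase made from a UUG start codon reports start codon fidelity; reporter light over untreated wells divided by growth signal over untreated wells; some hits fall short of that in this replicate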
MT1-MMP act inh: blockers of MT1-MMP proenzyme processing, primary screen, HT1080 RFP-PRO-GFP cells, GFP/RFP fluorescence; GFP/RFP ratio fluorescence, overnight; percent of plate control window, DMSO zero; actives 0.061% (n = 360,000); GFP/RFP ratio change, % at 20 µM;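 active = GFP/RFP ratio change of at least 30% with cell ATP level not reduced by more than half and red fluorescence within 50% of control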; note: strong numbers were not always called active
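Assay system: HT1080 cells carrying an RFP-PRO-GFP reporter | Dosing: Single dose of 20 µM compound, 1% DMSO final | Incubation: Cells overnight before dosing, compound overnight, 37 °C, 5% CO2 | Evaluation: GFP/RFP fluorescence ratio | Control set: DMSO and RFP-L50D-GFP cell wells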
PABP polyA inh: PABP poly(A) RNA binding inhibitors, primary screen, biochemical, fluorescence polarization, uHTS | inhibition, % at 35 µM | AID 2014, 2009 | actives 1% (n = 290,000) | Polyadenylate-binding protein 1 (Homo sapiens), P11940;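 active = 50% or more with normal probe brightness, or confirmed in later tests; about a fifth of its hits are not listed in these tables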;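 note: calls also rest on retests at 20 µM and on dose response follow-up; controls were probe without protein and protein plus probe with vehicle; some compounds called inactive have numbers as strong as hits; many hits fall short of the cut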
MT1-MMP act inh RFP: recorded beside MT1-MMP act inh, whose call it bears; RFP signal change, %; measured here: RFP expression control read;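 0 = vehicle wells; hits needed this value within 50% of zero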
Active calls of the source: *; i = inactive; x = no result given; & = joins results of further samples.

SMILES	Rce1 inh	HIV Env fusion	CSC inhib	eIF4H inh	UUG fidelity	MT1-MMP act inh	MT1-MMP act inh RFP	PABP polyA inh
Cc1ccc(CNC(=O)Cn2c(=O)c3sccc3n(Cc3ccc([N+](=O)[O-])cc3)c2=O)cc1	i	4	-6	-5	x	2	-4	-12
COc1ccc(CN(C(=O)/C=C/c2ccccc2Cl)C2CCS(=O)(=O)C2)cc1 (centres undefined)	i	-2	-9	-7	-3	-1	-1	8
CN(C)CCCN(C(=O)c1ccc(S(=O)(=O)N2CCc3ccccc3C2)cc1)c1nc2ccc(F)cc2s1	i	18	91*	-9	-6	-8	-6	-33
Cc1c(-c2ccccc2)[n+](=O)c2c(n1[O-])CCCCC2	i	-17	4	-10	3	1	3	-14
Cc1cccc(-n2c(=S)[nH]c3c(oc4ccccc43)c2=O)c1	i	6	-6	-3	-12	-4	-1	9
Cc1cc(NC(=O)c2ccc(Cl)cc2Cl)n(-c2ccccc2)n1	x	7	x	x	-7	-2	-4	x
Cc1cc(C(=O)N/N=C/c2cccnc2)cs1	i	-6	-9	6	x	3	5	-7
Cc1ccccc1-c1nc(CS(=O)(=O)CC(=O)NCCCN2CCCC2=O)c(C)o1	i	-38	-11	-1	7	-4	3	1
CNC(=S)NNC(=O)c1sccc1OCc1ccc(Cl)cc1Cl	i	3	-13	-1	-26	1	10	-4
Cc1ccc(NC(=O)CNC(=O)Cc2cccc3ccccc23)c(O)c1	i	-6	4	x	-17	-2	5	x
Cc1cccc(OC(=O)c2sc3ncn(C)c(=O)c3c2C)c1	i	-7	-8	-5	x	0	4	18
CC(N)c1csc(Nc2ccc(C(=O)c3ccccc3)cc2)n1 (centres undefined)	x	14	x	x	-9	-5	-3	x
O=C(C1CCCN(Cc2cccc(F)c2)C1)N1CCCCC1 (centres undefined)	i	-61	-8	2	-20	6	1	21
CCc1nc2c(OCc3cc(Cl)cc(Cl)c3)cccn2c1N(C=O)Cc1ccc(OC)cc1	x	23	x	x	0	-2	-12	x
COCC(=O)n1nc(-c2ccc(Cl)cc2)nc1NCc1ccc(F)cc1	i	-139	40	0	-11	4	-7	0
CCN1C(=O)/C(=C/N2CC(C)CC(C)C2)SC1=S (centres undefined)	i	x	47	2	-13	4	2	-4
COC(=O)c1ccc(CNC(=O)COC(=O)CCN2C(=O)C3CC=CCC3C2=O)cc1 (centres undefined)	i	4	-8	x	x	8	4	x
CC(=O)c1cccc(CN2CCCC(C(=O)Nc3cccc(-n4cccn4)c3)C2)c1 (centres undefined)	i	4	9	-4	-6	-1	-1	-3
Brc1ccc(CNc2ccc3ncccc3c2)cc1	i	22	-3	-5	-7	-3	-25	-4
Cc1ccc(NCc2nnc(SCC(N)=O)n2CCc2ccccc2)cc1	i	x	x	3	x	x	x	9
CCOC(=O)N1CCC(c2nc(C)sc2C(=O)O)CC1	i	-79	0	1	-15	8	5	-6
COc1ccc(S(=O)(=O)N2CCOCC2)cc1C(=O)Nc1ccon1	i	x	3	-4	7	1	1	0
O=C(Nc1cccc(S(=O)(=O)N2CCOCC2)c1)C1CCN(S(=O)(=O)c2ccccc2)CC1	x	-1	-12	x	2	-9	-1	x
O=C(Nc1nc2ccsc2c(=O)s1)c1ccc(Cl)cc1	i	-72	6	27	-5	0	-1	2
CN(C)CCCN(Cc1ccccc1)C(=S)Nc1ccc(F)c(Cl)c1	i	6	-7	-8	-18	-5	-5	-11
Cc1ccccc1-c1nc(CN2CCCC2c2ccc(F)cc2)c(C)o1 (centres undefined)	i	12	4	-14	-12	-1	1	-6
Cc1nnc(N2CCOCC2)c2nn(-c3ccccc3)c(C)c12	i	7	0	-1	x	-9	-3	-4
Cc1cc(C(=O)CN2C(=O)C(=O)N(Cc3ccccc3)C2=O)c(C)n1-c1ccc2c(c1)OCCO2	i	4	-16	-3	x	-2	0	-6
COc1cccc(COC(=O)CCNC(=O)c2ccc(Br)cc2)c1OC	i	-3	0	x	0	-1	-2	x
Cc1ccc(CN2[C@@H](c3ccccc3)COCCS2(=O)=O)cc1	i	11	8	4	-3	2	-2	-1
COCCNC(=S)N=Nc1c(O)[nH]c2c(C)cc(C)cc12	i	-7	-8	18	x	6	1	8
Cc1ccc(C2=NN(S(=O)(=O)c3ccccc3)C(c3ccco3)C2)cc1 (centres undefined)	x	-11	4	x	0	2	-12	x
O=C(Nc1ccc2c(c1)OCCO2)NC12CC3CC(CC(C3)C1)C2	i	-198	-2	-4	-13	6	2	13
COC(=O)C(Cc1ccc(O)cc1)NC(=O)CCNC(=O)c1ccco1 (centres undefined)	i	-6	-3	-9	-14	0	2	0
Cc1ccccc1NC(=O)Cn1cc(C(=O)C2CC2)c2ccccc21	x	-7	9	-9	-1	3	-2	0
NS(=O)(=O)c1ccc(NNC(=O)c2ccccc2C(=O)O)cc1	i	-2	-8	0	0	0	0	0
Cc1nc(/N=C\N(C)C)sc1C(=O)Nc1ccccc1	i	-60	0	-6	-10	7	5	-2
O=C(NCc1ccccc1C(F)(F)F)c1cccc2c1C(=O)c1ccc(N3CCOCC3)cc1S2(=O)=O	x	23	x	x	-23	-15	4	x
COc1cccc(CC2(CO)CCCN(C/C=C/c3ccccc3OC)C2)c1 (centres undefined)	i	17	33	-1	-9	-3	1	-1
O=[N+]([O-])c1cccc(NC(=S)N2CCc3ccccc3C2)c1	i	-2	x	4	x	2	-5	-9
Cc1ccc(-c2cc(C(=O)N/N=C/c3c(C)nn(-c4ccccc4)c3C)[nH]n2)cc1	i	x	x	-15	-9	15	-2	-3
COc1ccccc1N1CCN(C(=O)c2cc(-c3ccco3)on2)CC1	i	21	-11	0	-5	-2	4	36
O=C(Nc1ccc(F)c([N+](=O)[O-])c1)C1CC(=O)N(Cc2ccccc2)C1 (centres undefined)	i	-8	-6	-1	x	0	3	-7
O=Cc1ccc(-c2nc3ccccc3s2)o1	i	-10	8	1	-39	-2	1	4
CC1=C(C)CC(C(=O)NC2CCCC2)C(C(=O)O)C1 (centres undefined)	i	x	x	-8	-12	-1	7	4
CC(C)c1ccc2c(c1)C(c1ccc(N3CCOCC3)cc1)=NNC(c1cccs1)=N2	i	-29	-11	-14	-14	-22	-5	-1
Cc1cccc(CNC(=O)Nc2nnc([C@H]3C[C@H](O)[C@@H](CO)O3)s2)c1	x	9	x	x	-10	-1	0	x
O=[N+]([O-])c1cc([N+](=O)[O-])c(Oc2cc(F)cc(F)c2)cc1NN1CCCCC1	x	0	-6	x	-6	-1	4	x
O=C(Oc1cccnc1)c1cc(S(=O)(=O)N2CCCCC2)ccc1Cl	i	-10	15	0	-18	7	4	0
CCN(CC)S(=O)(=O)N1CCC(C(=O)NCCC2=CCCCC2)CC1	i	1	-3	-1	2	0	-2	3

Other entries follow.
SMILES	Rce1 inh	HIV Env fusion	CSC inhib	eIF4H inh	UUG fidelity	MT1-MMP act inh	MT1-MMP act inh RFP	PABP polyA inh
COc1ccc(CN2CCN(C(=O)c3cccnc3)CC2)cc1Br	i	x	-7	-7	-3	-1	0	41
COC(=O)C1=NN(c2cccc(C)c2)C2C(=O)N(c3ccccc3OC)C(=O)C12 (centres undefined)	i	1	-5	5	x	1	1	6
Cc1noc(C)c1NC(=O)Nc1ccc2c(c1)C(=O)N([C@H](C)CO)C[C@H](C)[C@H](CN(C)C(=O)NC1CCCCC1)OCCCC[C@@H](C)O2	x	-21	x	x	-1&0	-2	1	x
Nc1ncnc(Nc2ccccn2)c1[N+](=O)[O-]	i	15	2	-1	x	-7	-6	20
CSc1ncccc1-c1nc2ccccc2[nH]1	i	-43	-15	-8	-17	-1	2	-3
COC(=O)[C@H](CCSC)NC(=O)NC1CC1	i	3	36	-11	x	0	4	-8
Cc1cccc2cc(CN(Cc3cccs3)C(=S)NCC3CCCO3)c(=O)[nH]c12 (centres undefined)	i	10	x	1	x	-3	-3	-14
CN(C)S(=O)(=O)N1CCC(Oc2ccc(C(=O)N3CCCCCCC3)cc2)CC1	i	-73	27	-13	29	4	-14	-1
Cc1cc(NC(=O)CN2CCCC(C)C2)no1 (centres undefined)	i	0	-6	4	x	1	3	1
Cn1c(=O)c2c(nc(SCCN3CCOCC3)n2Cc2ccc(Cl)cc2)n(C)c1=O	x	12	x	x	-10	-2	6	x
Cc1ccc(C(C(=O)NC2CCCCC2)N(CCC(C)C)C(=O)CNC(=O)c2ccco2)o1 (centres undefined)	i	x	x	-6	-6	6	1	-8
O=C(c1ccc(-c2cccc(C(F)(F)F)c2)o1)N1CCN(c2ccccc2)CC1	x	-10	x	x	-12	3	-1	x
O=C(N/N=C/c1cccc([N+](=O)[O-])c1)c1ccccc1-n1cccc1	i	7	3	0	x	1	-2	-14
Cc1ccc(S(=O)(=O)c2ccc(NC(=O)c3c(F)cccc3F)cc2)cc1	i	-17	-6	-8	10	0	1	-2
CC(C(=O)N(C)C)N1c2cccc3cccc(c23)S1(=O)=O (centres undefined)	i	4	-8	-12	4	0	-3	5
CC1=C(C(=O)Nc2cccc(C(=O)N3CCC(C(N)=O)CC3)c2)SCCO1	i	-1	-2	-7	-26	0	5	1
Nc1nnn(CC(=O)N/N=C/c2cn[nH]c2-c2ccccc2)n1	i	0	-11	-2	-4	-3	-1	-4
Cn1nc(CC(=O)NCCN2C(=O)CSC2=O)c2ccccc2c1=O	i	-77	-1	1	-19	3	2	1
COc1cc(NC(=S)Nc2ccc(OC(F)F)cc2)cc(OC)c1	i	1	-5	-4	-7	0	5	-6
Cc1ccc(S(=O)(=O)N2CCOCC2)cc1C(=O)NC(=S)N(Cc1ccccc1)C(C)C	i	-99	7	-11	x	12	5	-7
Cc1c(Cl)cccc1N1CC(C)(C)C1=O	i	1	7	-9	x	-3	-1	11
COc1ccc(S(=O)(=O)N2CCCCCC2)cc1NC(=O)Cc1cc(OC)c(OC)c(OC)c1	i	19	-5	8	-7	2	-3	1
CCN1C(=O)[C@H]2[C@@H](c3ccc(-c4ccccc4)cc3)N[C@@](Cc3ccccc3)(C(=O)OC)[C@H]2C1=O	i	-6	9	x	-12	0	2	x
COC(=O)C[C@@H]1C[C@H]2c3cc(NS(=O)(=O)c4ccccc4)ccc3O[C@H]2[C@@H](CO)O1	x	-34	x	x	12&42	4	5	x
CC(=O)NC(c1ccc(F)c(F)c1)c1nc(-c2cccs2)cs1 (centres undefined)	x	18	x	x	-31	4	-2	x
CCN(CC)S(=O)(=O)c1ccc2oc(C(=O)NC(C)C)c(C)c2c1	i	-51	-5	-1	-8	2	2	0
CCC(=O)N1CCc2cc(S(=O)(=O)CCC(=O)Nc3ccc(CC)cc3)ccc21	i	-44	-17	-5	1	2	1	0
CN1C(=O)[C@H]2[C@@H](c3ccc(F)cc3)N3C(=O)c4ccccc4NC(=O)[C@@]3(C)[C@H]2C1=O	i	x	4	-8	-4	-3	3	-6
COc1ccccc1NC(=O)CSc1nc(=O)n(CCN(C)C)c2c1CCCC2	i	-15	-4	x	-4	-1	-3	x

By substructure: the compounds so far containing a CF3 group.
SMILES	Rce1 inh	HIV Env fusion	CSC inhib	eIF4H inh	UUG fidelity	MT1-MMP act inh	MT1-MMP act inh RFP	PABP polyA inh
O=C(NCc1ccccc1C(F)(F)F)c1cccc2c1C(=O)c1ccc(N3CCOCC3)cc1S2(=O)=O	x	23	x	x	-23	-15	4	x
O=C(c1ccc(-c2cccc(C(F)(F)F)c2)o1)N1CCN(c2ccccc2)CC1	x	-10	x	x	-12	3	-1	x

These rows are one share of the data (hit frequency here may not be typical).
